Screening data (PubChem BioAssay)
INS promoter inh – TRM-6 insulin promoter activity inhibition | TRM-6 cells (human fetal islet line), insulin promoter-eGFP reporter, imaging; reporter expression induced with tamoxifen | inhibition, % at 2 µM | hit rate 0.9% among 130,000 | AID 1273;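 active = inhibition above the mean plus 3 SD, with well images judged a real hit on visual review, cut at about 60% in these data, passing the limit was not always enough; inconclusive = inhibition over the cutoff but images rejected on review; inactive = inhibition not above the cutoff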
GALR2 agonist – activates the human galanin receptor 2; GALR2-expressing cells, agonist activation read-out; O43603; hit rate 0.48% among 140,000; activation, %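 (tested at 5 µM)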;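 active = above mean plus 3 SD of all compounds, about 5% in these data, not always enough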;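 also: 0% = vehicle buffer wells and 100% = reference agonist at full effect; tested in CHO reporter cells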
HSV replic up – increases HSV replication in cells; HSV replication augmentation in cells, fold increase; maximum fold increase; hit rate 0.005% among 220,000; AID 1956;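 active = peak rise of 1.5-fold or more in the series; inconclusive = self-fluorescent or not available for retest; tested in PC3 cells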;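 also: first round at 10 µM; read as green reporter fluorescence; hits show the peak of a series up to 25 µM; 1 = signal of infected wells without compound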
RGS16-Gao HTS – RGS16-Galphao interaction regulator (human). AID 1441. O15492+P09471. hit rate 0.38% among 220,000. bead-based flow cytometry RGS16-Galphao binding, fluorescence; actives lie on both sides. binding response (% of control), % at 10 µM;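 active = below 25% or above 175%, edge rows of some plates excepted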;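 also: Galphao activated by GDP with aluminum fluoride before binding; 100% = wells without compound and 0% = beads without RGS; some results beyond the cut were filed as inactive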
PKD1 inh – blocks activity of human protein kinase D1; PKD1 kinase fluorescence polarization assay; inhibition, %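 (about 10 µM by stock and volumes)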; hit rate 0.056% among 200,000; AID 797;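 active = inhibition of 50% or more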;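 also: controls were vehicle for no effect and a reference inhibitor for full effect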
Target sequence (Q15139 whole entry, looked up): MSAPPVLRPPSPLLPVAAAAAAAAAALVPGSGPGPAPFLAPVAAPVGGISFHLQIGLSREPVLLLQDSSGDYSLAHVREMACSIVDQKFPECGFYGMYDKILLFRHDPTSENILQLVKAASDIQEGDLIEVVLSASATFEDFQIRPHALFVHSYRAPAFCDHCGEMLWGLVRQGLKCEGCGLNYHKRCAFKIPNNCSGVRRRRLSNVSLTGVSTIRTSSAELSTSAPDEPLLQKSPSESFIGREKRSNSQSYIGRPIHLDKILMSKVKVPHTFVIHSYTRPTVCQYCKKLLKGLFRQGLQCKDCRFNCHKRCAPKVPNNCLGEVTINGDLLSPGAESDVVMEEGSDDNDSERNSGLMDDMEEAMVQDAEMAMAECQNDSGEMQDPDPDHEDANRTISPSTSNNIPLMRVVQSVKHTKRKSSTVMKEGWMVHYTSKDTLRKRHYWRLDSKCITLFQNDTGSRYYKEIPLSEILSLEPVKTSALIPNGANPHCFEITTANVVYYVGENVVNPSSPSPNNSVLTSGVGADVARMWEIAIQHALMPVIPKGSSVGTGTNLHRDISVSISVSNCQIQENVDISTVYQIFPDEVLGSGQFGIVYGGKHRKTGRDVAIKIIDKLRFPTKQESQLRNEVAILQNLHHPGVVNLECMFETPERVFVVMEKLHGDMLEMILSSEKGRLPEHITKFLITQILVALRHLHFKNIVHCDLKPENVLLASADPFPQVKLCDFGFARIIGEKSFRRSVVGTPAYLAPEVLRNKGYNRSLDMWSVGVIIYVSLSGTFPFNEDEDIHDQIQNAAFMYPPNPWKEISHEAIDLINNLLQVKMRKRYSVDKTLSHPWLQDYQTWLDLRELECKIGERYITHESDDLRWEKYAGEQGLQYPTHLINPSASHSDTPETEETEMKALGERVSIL
INS promoter inh cell count – further read-out of INS promoter inh, marked with its call; normalized cell count, %; measured here: cell count, toxicity; reference of the scale not given here;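 cells exposed to compound for 48 h; stained nuclei by imaging scaled within each plate; lower means fewer cells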
HSV replic up primary fold – also measured in HSV replic up; calls as there; fold increase; compound at 10 µM; measured here: primary screen fold increase 10 uM; tested in PC3 cells;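 GFP signal in the first replicate; 1 = infected wells without compound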
* marks the source's active call; other numbers are inactive results; i = inactive; ? = inconclusive; / = not tested or not shown.

Under each structure: INS promoter inh	INS promoter inh cell count	GALR2 agonist	HSV replic up	HSV replic up primary fold	RGS16-Gao HTS	PKD1 inh
CCCC(C)C(=O)Nc1cccc(NC(C)=O)c1 (centres undefined)
    /	/	-2.0	i	1	101	-1
CC(C)c1ccccc1NC(=O)COc1ccc(C(=O)NCCc2ccccc2)cc1
    -46	83	1.2	i	0.59	108	-10
CC(C)NC(=S)N/N=C/c1cc(Br)ccc1O
    27	65	-2.1	i	0.93	117	-9
COc1cccc(-n2c(COc3ccccc3C)nnc2SCC(=O)O)c1
    /	/	-3.6	i	0.8	111	1
O=C(CCc1ccccc1)NNC(=O)C12CC3CC(CC(C3)C1)C2
    /	/	-0.2	i	0.69	117	-5
O=C(Nc1nc(-c2ccco2)c(-c2ccco2)s1)C1CC(=O)N(c2ccc3c(c2)OCCO3)C1 (centres undefined)
    /	/	-2.1	i	1	95	-2
CCNC(=O)C(C)Oc1ccc(Cl)cc1Cl (centres undefined)
    /	/	/	i	0.87	100	3
Cc1cc(C)cc(Oc2nn[nH]n2)c1
    -4	70	-3.3	i	1.3	70	-1
Cc1ccc(NC(=O)CO/N=C/c2ccccc2C)c(C)c1
    -8	51	/	i	1	119	0
CC(=O)NC(Cc1c[nH]c2ccccc12)C(=O)N1CCc2ccccc2C1 (centres undefined)
    -36	38	-1.9	i	0.86	96	3
Fc1ccc(Nc2ccc(-c3ccc(F)cc3)nn2)cc1
    /	/	/	i	0.89	100	1
O=c1[nH]c(C2CCN(S(=O)(=O)c3ccccc3)CC2)nc2c1nnn2Cc1ccccc1
    /	/	/	i	0.93	104	0
CCn1ccc(C(=O)Oc2ccc(Cl)cc2)n1
    29	113	-4.7	i	1	103	-10
Cc1occc1-c1n[nH]c(=S)n1-c1ccccc1
    -10	100	-0.9	i	0.97	106	0
CCN(CC(O)COc1ccc(OCC(O)CN(CC)C2CCCCC2)cc1)C1CCCCC1 (centres undefined)
    19	138	-1.7	i	1	100	-1

Reprinted from the part before: four entries; new compounds follow.
Under each structure: INS promoter inh	INS promoter inh cell count	GALR2 agonist	HSV replic up	HSV replic up primary fold	RGS16-Gao HTS	PKD1 inh
O=c1[nH]c(C2CCN(S(=O)(=O)c3ccccc3)CC2)nc2c1nnn2Cc1ccccc1
    /	/	/	i	0.93	104	0
CCn1ccc(C(=O)Oc2ccc(Cl)cc2)n1
    29	113	-4.7	i	1	103	-10
Cc1occc1-c1n[nH]c(=S)n1-c1ccccc1
    -10	100	-0.9	i	0.97	106	0
CCN(CC(O)COc1ccc(OCC(O)CN(CC)C2CCCCC2)cc1)C1CCCCC1 (centres undefined)
    19	138	-1.7	i	1	100	-1
O=C(NC(c1ccccc1)c1cc(Cl)c2cccnc2c1O)c1cccnc1 (centres undefined)
    /	/	-0.1	i	0.93	82	-1
O=C(COC(=O)c1ccccc1NS(=O)(=O)c1ccc(Cl)cc1)NCc1ccccc1
    7	95	-0.5	i	1	105	-12
COc1ccc(C(=O)N(Cc2ccco2)Cc2cccs2)c(O)c1
    -27	73	-0.5	i	1	105	-9
C1=CC2CC1CC2CN1CCN(c2ccccc2)CC1 (centres undefined)
    /	/	-1.8	i	1	101	2
COc1ccc(NC(=O)C2CCCO2)cc1OC (centres undefined)
    30	118	-3.0	i	0.97	104	-5
O=C(COc1ccccc1[N+](=O)[O-])NCCC1=CCCCC1
    -19	114	/	i	1.1	104	-3
O=C(c1cccc(C(=O)N2CCN(c3ccccc3)CC2)c1)N1CCN(c2ccccc2)CC1
    -41	132	-0.1	i	1.1	101	-10
CNC(=S)Nc1cccc(S(=O)(=O)NC2=NCCC2)c1
    -45	64	/	i	1	104	3
CCOc1ccc(C(=O)NCC(=O)OCC(=O)N2CCCCC2)cc1
    -8	120	-1.7	i	1	101	-16
O=C(Nc1ccc(Cn2cccn2)cc1)c1ccc(COc2ccc(Br)cc2)cc1
    22	95	-3.7	i	0.95	89	4
C/C=C/Cn1c(SCc2ccc(Cl)cc2)nc2c1c(=O)[nH]c(=O)n2C
    /	/	1.4	i	0.85	92	9
COc1cccc(C2/C(=C(\O)c3ccc4c(c3)OCO4)C(=O)C(=O)N2CCN(C)C)c1OC (centres undefined)
    -6	136	-0.6	i	0.97	98	-13
NS(=O)(=O)c1ccc(CCNC(=S)Nc2ccc(F)cc2)cc1
    -41	116	/	i	0.84	100	5
COC(=O)c1cc(C(=O)OC)cc(-n2c(C)cc(C=O)c2C)c1
    /	/	/	i	0.97	103	-3
Cc1c(NC(=O)c2ccc(N(C)S(=O)(=O)c3ccccc3)cc2)c(=O)n(-c2ccccc2)n1C
    30	104	/	i	0.96	100	12

Some of the entries so far, tab-delimited:
molecule	INS promoter inh	INS promoter inh cell count	GALR2 agonist	HSV replic up	HSV replic up primary fold	RGS16-Gao HTS	PKD1 inh
COc1ccc(NC(=O)C2CCCO2)cc1OC (centres undefined)	30	118	-3.0	i	0.97	104	-5
COc1ccc(C(=O)N(Cc2ccco2)Cc2cccs2)c(O)c1	-27	73	-0.5	i	1	105	-9
COC(=O)c1cc(C(=O)OC)cc(-n2c(C)cc(C=O)c2C)c1	/	/	/	i	0.97	103	-3

Later entries
Under each structure: INS promoter inh	INS promoter inh cell count	GALR2 agonist	HSV replic up	HSV replic up primary fold	RGS16-Gao HTS	PKD1 inh
CC1(C)Cc2nc3sc(C(=O)NCCO)c(N)c3cc2CO1
    -162	81	-0.4	i	0.91	/	-10
Cc1ccc(NC(=O)CC2SC3=NCCCN3C2=O)c(C)c1 (centres undefined)
    -11	191	-5.0	i	1.1	99	-2
CC(=O)Nc1nc2ccccc2n1Cc1ccccc1
    -3	264	-0.5	i	1.1	101	-3
Oc1ccc(/C=N/NC(=S)Nc2cccnc2)c(O)c1O
    /	/	/	i	1.2	73	/
Nc1cc2c(cc1C(=O)c1cccc(Br)c1)OCCO2
    /	/	/	i	0.87	103	-4
Cc1nc(-c2ccccn2)sc1C(=O)Nc1ccc(F)cc1
    26	144	-0.9	i	0.95	102	-8
CN1C(=O)/C(=C/C=C2\SCCN2C)OC1=S
    /	/	/	?	/	112	-9
CCOC(=O)c1cc(-c2ccco2)nc2c1c(C)nn2CCC#N
    14	129	-2.6	i	0.85	104	-7
O=C(Nc1cccnc1)c1sc2cccc(F)c2c1Cl
    /	/	/	i	0.78	100	0
Cc1cc(C)c2nc(-c3ccccn3)cc(C(=O)NCc3ccc(S(N)(=O)=O)cc3)c2c1
    /	/	/	i	0.75	93	5
CC(Cc1cccnc1)NC(=O)CCc1nnc(-c2ccccc2)o1 (centres undefined)
    /	/	/	i	1.1	103	-2
C=C(C)c1cccc(C(C)(C)NC(=O)Nc2ccc(C)cn2)c1
    /	/	-0.6	i	0.94	97	-4
COCC(=O)Nc1ccc([N+](=O)[O-])cc1C
    41	120	-2.9	i	1	103	-17
CCOC(=O)C1(CCOc2ccccc2)CCN(Cc2nccn2CC)CC1
    /	/	/	i	0.97	96	-6
Cc1cc2ncn(/N=C/c3cccnc3)c2cc1C
    -7	199	-2.8	i	0.95	102	7

The listing continues.
Under each structure: INS promoter inh	INS promoter inh cell count	GALR2 agonist	HSV replic up	HSV replic up primary fold	RGS16-Gao HTS	PKD1 inh
Cc1ccc(NCN2C(=O)C3CC=CCC3C2=O)cc1 (centres undefined)
    57	118	-1.9	i	1	104	3
O=c1[nH]c2ccccc2n2c(=S)[nH]nc12
    /	/	/	i	0.93	93	/
O=C(COC(=O)C1CCN(S(=O)(=O)c2cccc3cccnc23)CC1)c1ccccc1
    -15	110	-1.3	/	/	103	-4
CC(C)OC(=O)CCCNc1ccc([N+](=O)[O-])cc1[N+](=O)[O-]
    10	92	-1.6	i	0.94	111	-1
CCOc1ccc(N2CC(C(=O)Nc3ccc(S(=O)(=O)N4CCOCC4)cc3)CC2=O)cc1 (centres undefined)
    /	/	-1.1	i	0.74	107	-13
Cc1ccc(C2/C(=C(\O)c3cnn(-c4ccccc4)c3C)C(=O)C(=O)N2CCN(C)C)o1 (centres undefined)
    11	161	-4.2	i	0.94	109	6
COc1cc(/C=C/C(=O)OCC(=O)Nc2ccc3c(c2)OCCO3)ccc1OCC#N
    18	105	-0.7	i	0.91	118	-18
COc1cc(-c2cc(-c3ccc(F)cc3)nc(N)c2C#N)ccc1O
    -13	96	/	i	0.79	100	3
CCOC(=O)N1CCC(N2CCCC(CO)(Cc3cccc(OC)c3)C2)CC1 (centres undefined)
    -30	164	/	i	1	103	-8
COc1ccc(CCN(C)CCC(=O)Nc2c(C)cc(C)cc2C)cc1OC
    -17	92	-0.7	i	0.93	108	-8
Cc1ccc2[nH]c3c(=O)n(CCC4=CCCCC4)cnc3c2c1
    -36	43	-1.4	i	0.98	102	0
COc1ccc(CN(C2CCCCC2C)S(=O)(=O)c2ccc(S(=O)(=O)N(C)C)cc2)cc1OC (centres undefined)
    -24	108	0.7	i	0.89	30	-8
C=CCNC(=O)c1ccc(Cn2c(=S)[nH]c3cc4c(cc3c2=O)OCO4)cc1
    -3	142	-3.0	i	0.69	101	3
COc1ccc(C(=O)Nc2c3c(nn2-c2cccc(Cl)c2)CS(=O)C3)cc1 (centres undefined)
    /	/	-0.2	i	1	99	-9
COc1ccc(CCNC(=O)c2cc(-c3ccco3)on2)cc1OC
    /	/	/	i	1	95	-2

Other entries:
Under each structure: INS promoter inh	INS promoter inh cell count	GALR2 agonist	HSV replic up	HSV replic up primary fold	RGS16-Gao HTS	PKD1 inh
CCOC(=O)c1c(C)noc1CP(=O)(c1ccccc1)c1ccccc1
    -34	126	-2.8	i	0.88	100	-1
Cc1c(C(=O)N2CCOCC2)sc2nc(-c3ccccc3)cn12
    /	/	-1.2	/	/	97	-3
CCCCCCN(C(=O)CCCCCN1C(=O)NC(c2ccc(-c3ccccc3)cc2)C(C(=O)OCc2ccccc2)=C1C)C(C(=O)NCCCC)c1ccccc1 (centres undefined)
    /	/	/	i	0.83	99	/
CN(CC(=O)N1CCCCCC1)S(=O)(=O)c1ccc(F)cc1
    4	113	/	i	0.92	101	-1
COC(=O)c1cccc(CSc2nnc(C)s2)c1
    3	103	-1.4	i	0.92	100	1
CCCCCc1ccc(-c2ccc(OCC)cc2)nc1
    /	/	/	i	1	98	4
C=CCn1c(C)cc(C(=O)CSc2nnc(NCc3ccccc3)s2)c1C
    -22	24	-0.7	/	/	86	-13
CCOC(=O)C1CCN(C(=O)COC(=O)c2ccc(Br)o2)CC1
    /	/	-0.1	i	1.1	94	-10
COc1cccc(C(C)NC(=O)Nc2cccc(C(F)(F)F)c2)c1 (centres undefined)
    -62	110	-1.6	i	0.88	98	9
COc1cc2cc(CN(Cc3ccc4c(c3)OCO4)C(=O)c3ccco3)c(=O)[nH]c2cc1OC
    11	117	-2.4	i	0.92	/	-8

In another format: two of the compounds above.
SMILES | INS promoter inh | INS promoter inh cell count | GALR2 agonist | HSV replic up | HSV replic up primary fold | RGS16-Gao HTS | PKD1 inh
CN(CC(=O)N1CCCCCC1)S(=O)(=O)c1ccc(F)cc1 | 4 | 113 | / | i | 0.92 | 101 | -1
COC(=O)c1cccc(CSc2nnc(C)s2)c1 | 3 | 103 | -1.4 | i | 0.92 | 100 | 1
